Source: PubChem BioAssay (ICCB-Longwood Screening Facility, Harvard Medical School)
Mtb MenB inh – Mtb MenB enzyme inhibition; 100,000 tested, 0.43% active; MenB enzyme assay, absorbance read-out; some hits fall short of the stated cut; inhibition, %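 (about 12 µg/mL by stock and volumes)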; P9WNP5;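 active = mean of two replicates above 30%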;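 also: 0% = no compound and 100% = wells with inactive enzyme; the first replicate is given; strong numbers were not always called active; inactives centre near -10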
Target sequence (P9WNP5 whole entry, looked up): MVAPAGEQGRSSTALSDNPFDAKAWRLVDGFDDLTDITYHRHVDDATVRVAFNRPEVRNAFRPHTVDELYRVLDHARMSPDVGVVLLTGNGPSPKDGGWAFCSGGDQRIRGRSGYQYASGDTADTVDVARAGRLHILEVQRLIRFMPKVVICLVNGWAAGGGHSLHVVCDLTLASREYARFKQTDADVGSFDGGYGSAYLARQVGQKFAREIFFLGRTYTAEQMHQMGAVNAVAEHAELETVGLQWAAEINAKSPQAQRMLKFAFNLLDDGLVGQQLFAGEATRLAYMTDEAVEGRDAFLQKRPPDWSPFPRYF
Polio RdRp inh – inhibitors of poliovirus RNA polymerase binding and polymerization. P03300. poliovirus polymerase elongation, fluorescence polarization; hits give low values. % elongation, % (compound at 16.7 µg/mL). 150,000 tested, 0.66% active. AID 588519; in the data active = % elongation below about 90%; also: some results filed as inactive read as strong as hits
MbtI inh – blocks the Mycobacterium tuberculosis siderophore enzyme MbtI; P9WFX0; 100,000 tested, 0.89% active; inhibition, %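 (about 17 µg/mL by stock and volumes)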; purified MbtI enzyme, fluorescence intensity read-out;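 active = above 50% in both replicates, above 80% if mildly self-fluorescent; inactive = the rest, strongly fluorescent compounds included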;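 also: 0% = mean of negative and 100% = mean of positive controls; one replicate is shown; some compounds called inactive have numbers as strong as hits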
Target sequence (P9WFX0 whole entry, looked up): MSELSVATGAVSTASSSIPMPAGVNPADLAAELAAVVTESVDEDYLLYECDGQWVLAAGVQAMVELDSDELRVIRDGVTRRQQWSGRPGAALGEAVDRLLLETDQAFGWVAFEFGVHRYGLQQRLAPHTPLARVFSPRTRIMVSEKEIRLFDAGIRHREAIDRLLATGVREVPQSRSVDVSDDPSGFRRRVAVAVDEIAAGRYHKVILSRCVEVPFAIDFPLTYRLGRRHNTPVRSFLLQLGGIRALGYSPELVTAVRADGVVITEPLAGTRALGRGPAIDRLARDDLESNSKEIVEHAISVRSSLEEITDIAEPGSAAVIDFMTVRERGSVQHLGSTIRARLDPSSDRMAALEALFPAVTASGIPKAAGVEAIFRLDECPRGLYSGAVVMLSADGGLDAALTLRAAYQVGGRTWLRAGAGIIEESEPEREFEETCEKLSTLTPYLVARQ
Polio RdRp inh intensity – recorded beside Polio RdRp inh, whose call it bears; % elongation; measured here: total intensity read-out; formula for this scale not given here;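 total fluorescence in place of polarization; lower means less elongation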
The depositor's hits bear a star; i = inactive; · = no result given; & = joins results of further samples. Hits appear at their usual frequency. Share with any hit: about 2%.

SMILES	Mtb MenB inh	Polio RdRp inh	Polio RdRp inh intensity	MbtI inh
COC(=O)c1scc(C)c1NS(=O)(=O)c1ccc2c(c1)CCO2	-21	105	110	-4
Cc1nn2c(=O)/c(=C/c3ccccc3)sc2nc1=O	-9	103	100	-2
C/C(CC(c1ccccc1)c1c(O)c2ccccc2oc1=O)=N/O (stereo unspecified)	-8	105	110	-51
O=C(CSc1nc2ccc(N3C(=O)c4ccccc4C3=O)cc2s1)c1ccccc1	-23	104	107	3
Cc1cc(NC(=O)C2CC2)n(-c2ccccc2C(F)(F)F)n1	·	104	104	-4
Cc1cc2nc(NCCOc3ccccc3)c3ccccc3n2n1	-15	99	101	104
CCOC(=O)Cn1c(=NC(=O)c2ccc(N3C(=O)CCC3=O)cc2)sc2cc(S(N)(=O)=O)ccc21	-5	102	105	-106
CCOC(=O)CN=C(c1ccccc1)c1ccccc1	-2	101	99	·
CN(c1ccccc1C(N)=O)S(=O)(=O)c1ccccc1	-14	104	99	-1
COc1ccc(-c2cc(=O)oc3c(C)c(O)c(CN4CCCC(C)C4)cc23)cc1 (stereo unspecified)	-45	100	105	-29
c1ccc2c3c([nH]c2c1)C1C2CCC(C4CCCNC42)N1CC3 (stereo unspecified)	3	100	100	134
Fc1cccc(-n2ncc3c2ncn2nc(-c4ccccc4)nc32)c1	-24	101	100	-4
CCc1nc2n(n1)C(c1ccc3c(c1)OCO3)C(C(=O)Nc1ccccc1OC)=C(C)N2 (stereo unspecified)	2	102	104	-3
Clc1ccc(CSC(Cn2ccnc2)c2ccc(Cl)cc2Cl)cc1 (stereo unspecified)	-10&-3	99&99	99&98	0&0
CCOC(=O)c1nc(N(C)C2CCCCC2)c2ccccc2n1	-17	101	101	-2
O=C(c1cn(-c2ccc(F)cc2F)c(=O)c2ccccc12)N1CCN(c2ccccc2)CC1	-16	103	106	-10
Cc1ccc2c(c1)N(C(C)C(=O)NCc1ccc3c(c1)OCO3)C(=O)CO2 (stereo unspecified)	-2	103	103	1
CC(C)NC(=O)CN1CCN(Cc2c(O)ccc3cc(Br)ccc23)CC1	4	95	96	7
CC1OCN(c2ccc(OC(F)(F)F)cc2)Cn2c1nc1ccc(Cl)cc12 (stereo unspecified)	-6	102	109	-15
CC(C)NC(=O)C(C)Oc1ccc(S(N)(=O)=O)cc1 (stereo unspecified)	0	104	103	-10

The closing 2 compounds of the section above open the next one.
SMILES	Mtb MenB inh	Polio RdRp inh	Polio RdRp inh intensity	MbtI inh
CC1OCN(c2ccc(OC(F)(F)F)cc2)Cn2c1nc1ccc(Cl)cc12 (stereo unspecified)	-6	102	109	-15
CC(C)NC(=O)C(C)Oc1ccc(S(N)(=O)=O)cc1 (stereo unspecified)	0	104	103	-10
CCc1cc(=O)oc2cc(C)c3c(-c4ccccc4)coc3c12	1	102	99	18
CC[C@H]1OC(=O)[C@H](C)[C@@H](O[C@H]2C[C@@](C)(OC)[C@@H](O)[C@H](C)O2)[C@H](C)[C@@H](O[C@@H]2O[C@H](C)C[C@H](N(C)C)[C@H]2O)[C@](C)(O)C[C@@H](C)C(=O)[C@H](C)[C@@H](O)[C@]1(C)O	-5	100	100	0
Nc1c2c(nc3ccn(-c4ccccc4)c(=O)c13)CCCCC2	-2	105	105	-57
O=C(c1cnc2ccc(Cl)cc2c1Cl)N1CCOCC1	-33	103	105	-25
CC(=O)N1CCc2c(sc3nc(SCc4cccc(F)c4)n(Cc4ccco4)c(=O)c23)C1	-10	102	105	65
CC1CC(C)CN(S(=O)(=O)c2ccc3nnn(O)c3c2)C1 (stereo unspecified)	-37	99	92	-18
O=c1c2cnn(-c3cccc(Cl)c3)c2ncn1CCC1OCCO1	-3	104	108	2
CN(C)C1(CNCC(=O)Nc2ccc(Cl)cc2Cl)CCCCC1	-1	104	106	-8
COc1ccc(-n2[nH]c(C)c(C(C)=NCCc3ccc(S(N)(=O)=O)cc3)c2=O)cc1	17	106	103	1
Cc1cc(C)nc(Sc2c(C)n[nH]c2C)n1	·	104	108	-12
O=C(c1ccc(CNS(=O)(=O)c2ccccc2)cc1)N1CCC2(CC1)OCCO2	11	99	101	10
CCN1C(=O)C(=C2C=C(C)OC(C)=C2)C(=O)N(CC)C1=S	-23	102	116	-5
CC(C)CN(CC(C)C)S(=O)(=O)c1cccs1	-29	101	102	-4
CS(=O)(=O)N(Cc1ccc(C(=O)O)cc1)c1cccc(Cl)c1Cl	-15	108	108	·
NC(=O)C1CCN(C(=O)CN2CCC(Cc3ccccc3)CC2)CC1	-10	101	102	-2
CN(C)C(=S)SCCCn1c(=O)[nH]c2ccccc21	-18	100	107	-5
CCc1ccc2[nH]c(C(=O)NCc3ccccc3)cc2c1	-19	105	113	-66
O=C(O)c1ccccc1C1=Nc2ccc(O)cc2Oc2cc(O)ccc21	-26	78	192	-21
Cc1csc2nc(COC(=O)CSc3ccccc3)cc(=O)n12	-27	105	101	-162
CN(C)CCN(Cc1ccccc1)Cc1c(F)cccc1Cl	-17	101	102	-7
NC(=O)Cn1c(=O)n(CCC(=O)NCCc2ccc(Cl)cc2)c(=O)c2sccc21	8	97	98	15
CC(=O)Nc1nonc1NC(C)=O	9	100	101	-20
O=C(NN1C(=O)S/C(=C/c2ccc(Cl)cc2)C1=S)c1ccccc1Cl	-101	102	103	3
Cc1ccc(Nc2nc(C(=O)NCC3CCCO3)cs2)cc1 (stereo unspecified)	-14	102	98	6
O=C(c1ccc[nH]1)c1cc2cc(Br)ccc2o1	-26	114	113	0
CCN(CC)CC(=O)OC1CC2CCC1(C)C2(C)C (stereo unspecified)	-13	108	112	·
CP(=O)(O)CN1CCN(CP(C)(=O)O)CC1	11	97	101	-2
CN1CCN(C(=O)c2ccccc2NC(=O)COc2ccc(Cl)cc2)CC1	8	104	103	-1
C=CCN1C(=O)C(CC(=O)Nc2ccccc2)N(Cc2ccccn2)C1=S (stereo unspecified)	-1	97	95	14
CCOC(=O)COc1ccc(C=C2C(=O)NC(=O)NC2=O)cc1Br	-44	99	100	14
CCCCC[C@H](O)/C=C/[C@@H]1[C@@H](CCCCCCC(=O)O)[C@@H](O)C[C@H]1O	5	103&100	104&104	-19
CCN(CCO)c1ncnc2onc(-c3ccccc3C)c12	-14	105	103	-13
O=C(OCC(=O)c1cccs1)c1ccc2c(c1)S(=O)(=O)c1ccccc1C2=O	-18	109	118	-12
COc1ccc(-n2cccc2CO)cc1	-8	101	96	·
Cc1ccc(N(CC#N)C(=O)Cn2cc[n+](C)c2)cc1	·	99	96	-7
Cc1cccc(-n2nnnc2SCC(=O)c2c[nH]c3ccccc23)c1	-3	99	102	-35
O=C1S/C(=C/c2cc3c(cc2Cl)OCO3)C(=O)N1c1ccccc1	5	·	·	9
CNc1nc(OC)cc(OC)n1	-8	108	101	·
CCCCSC1=NS(=O)(=O)c2ccccc2N1CCCC	-13	99	103	-13
COc1ccc(-n2c(Sc3ncccn3)nc3ccccc3c2=O)cc1OC	1	103	109	20
O=C(Nc1cccc(C(F)(F)F)c1)C1CC(c2ccccc2O)=NO1 (stereo unspecified)	-2	99	101	-27
OC(CN1CCN(c2nc3ccccc3s2)CC1)c1ccc(Cl)cc1 (stereo unspecified)	-10	101	101	-2
CC1(C)Cc2nc3sc4c(NCC5CCCO5)ncnc4c3cc2CO1 (stereo unspecified)	-29	101	96	-52
COc1cc(OC)cc(C(=O)N2CCC(C(=O)NC(C)C)CC2)c1	15	103	103	-7
CS(=O)(=O)c1cccc(Cl)n1	-8	113	103	·
Nc1ccc(S(=O)(=O)C(F)(F)F)cc1	4	100	100	6
CCCCNC(=O)Cn1c(=S)[nH]c2c([nH]c3ccc(OC)cc32)c1=O	6	99	103	4
O=S(=O)(NCC1OCCc2ccccc21)c1ccccc1 (stereo unspecified)	-53	102	100	-4
CCOC(=O)/C(=N\O)C1=CSC2=NNC(C)(C)N12	-7	109	108	-2
Brc1ccc(-c2cnc(-c3ccccc3)o2)cc1	3	108	103	108
CCC(Sc1nc(-c2ccccc2)c(-c2ccccc2)[nH]1)C(=O)O (stereo unspecified)	7	103	98	i
CCOC(=O)c1cc(OC(=O)c2cccnc2)n(-c2ccccc2)n1	-111	103	102	30
Cc1cnc(C(=O)OCC(=O)N2CC3(C)CC2CC(C)(C)C3)cn1 (stereo unspecified)	17	98	93	9
CN(C)C(=O)CSc1ccccc1C(=O)OCC(=O)NC1(C#N)CCCC1	-31	104	109	-6
O=C(Nc1cccnc1)C(Cc1ccccc1)N1C(=O)c2ccccc2C1=O (stereo unspecified)	-45	100	102	-12
CC(=O)Nc1cccc(OCCCNS(=O)(=O)c2cn(C)c(C)n2)c1	5	99	101	1
COC(=O)CNC(=O)c1cc2c(=O)[nH]c3ccccc3c2s1	-10	102	102	29
CCNc1nc(F)cc(F)n1	11	99	101	2
Cc1cc(NC(=O)NC(=O)c2cccs2)n[nH]1	-15	108	112	·
CC(C)C(=O)NN=C1CCC(=NNC(=O)C(C)C)CC1	2	100	103	-21

Rewritten with values under each structure: part of the list above.
Value order: Mtb MenB inh	Polio RdRp inh	Polio RdRp inh intensity	MbtI inh
Cc1cc(NC(=O)NC(=O)c2cccs2)n[nH]1
    -15	108	112	·
CN(C)C(=O)CSc1ccccc1C(=O)OCC(=O)NC1(C#N)CCCC1
    -31	104	109	-6

Entries of single compounds as entered above. Order of values: Mtb MenB inh	Polio RdRp inh	Polio RdRp inh intensity	MbtI inh
CCCCNC(=O)Cn1c(=S)[nH]c2c([nH]c3ccc(OC)cc32)c1=O across the screens: 6	99	103	4
CC(=O)Nc1cccc(OCCCNS(=O)(=O)c2cn(C)c(C)n2)c1 across the screens: 5	99	101	1
CC1(C)Cc2nc3sc4c(NCC5CCCO5)ncnc4c3cc2CO1 (stereo unspecified) across the screens: -29	101	96	-52
CS(=O)(=O)c1cccc(Cl)n1 across the screens: -8	113	103	·
CCOC(=O)/C(=N\O)C1=CSC2=NNC(C)(C)N12 across the screens: -7	109	108	-2

Remaining list, next part:
SMILES	Mtb MenB inh	Polio RdRp inh	Polio RdRp inh intensity	MbtI inh
O=P(O)(c1ccccc1)c1ccccc1	-3	101	104	-14
Cc1ccccc1CN(CCO)Cc1ccccc1	-27	101	101	-1
CNC(=O)CN(c1cccc2ccccc12)S(C)(=O)=O	5	101	101	0
Cc1ccc2cc(CCNC(=O)c3ccc(S(=O)(=O)N(C)C)cc3)c(=O)[nH]c2c1	1	100	107	1
CC(Oc1ccc2oc3ccccc3c2c1)C(=O)NC(N)=O (stereo unspecified)	-5	101	106	23
C[C@]12C[C@H](O)[C@H]3[C@@H](CCC4=CC(=O)CC[C@@]43C)[C@@H]1CC[C@@H]2C(=O)CO	3	101	103	-8
CCOC(=O)c1c(N/C=C(\C#N)c2nc(-c3cccs3)cs2)sc2c1CCC2	-11	95	111	16
CC(C)NC(=O)CSc1cc(-c2cccnc2)c2c(c1C#N)CCCC2	-6	111	112	·
CCCCn1c(-c2ccco2)nc2ccccc2c1=O	-22	101	100	43
COC(=O)COc1cccc(NC(=O)c2ccccc2F)c1	-16	100	101	5
COC(CNC(=O)c1ccc(CS(=O)(=O)Cc2ccc(Cl)cc2)o1)OC	-7	101	92	-1
Nc1ccc(S(=O)(=O)NC2=NCCC2)cc1	1	99	103	-6
O=C(NCC1COc2ccccc2O1)c1cn(Cc2ccc(F)cc2)nn1 (stereo unspecified)	12	101	103	-11
CCOc1ccccc1C(=O)NC1CCCCCC1	-24	102	111	·
O=C(COCc1cc(-c2ccc(F)cc2)on1)N(CC1CC=CCC1)CC1CCCO1 (stereo unspecified)	-34	103	105	-5
O=C(Sc1ccccc1)c1ccc(C(F)(F)F)cc1	-9	104	101	2
NCCc1cnc[nH]1	9&5	101&97&99	101&99&101	-15&-13
Cc1ccc(Cl)cc1NC(=O)c1cc(NC(=O)C2CC=CCC2C(=O)O)ccc1N1CCOCC1 (stereo unspecified)	-52	101	101	-8
O=C(NCc1cccnc1)C1CC(c2ccccc2F)=NO1 (stereo unspecified)	-14	100	103	-9
COc1ccc(NC(=O)CCc2nc3cc(S(=O)(=O)N4CCCCC4)ccc3n2C)cn1	-27	79	102	95*
CC(C)OCC(O)Cn1c2ccccc2c2ccccc21 (stereo unspecified)	-48	100	99	46
Cc1cc(C)n(-c2nc3ccccc3nc2NCC(C)O)n1 (stereo unspecified)	-64	106	103	-452
Cc1ccc(S(=O)(=O)CCN2CCC(C(F)(F)F)CC2)cc1	3	104	109	-7
CN(C)S(=O)(=O)c1cccc(CN2C(=O)NC(CCc3ccccc3)C2=O)c1 (stereo unspecified)	0	105	97	5
Cn1nc(-c2ccccc2F)c2cc(C(=O)Nc3ccc4c(c3)OCO4)sc21	8	101	93	9
CC(=O)OC1(Cc2ccccc2)CN2CCC1c1ccccc12 (stereo unspecified)	-34	102	95	-5
CN(C)CCNCc1cc2c(-c3cccc(F)c3)nn(-c3ccccc3)c2[nH]c1=O	-32	102	106	91
O=S(=O)(Cc1ccc(F)cc1)Cc1noc(-c2ccno2)n1	-9	104	111	-13
O=C(O)COc1ccc(Nc2ccccc2)cc1	·	101	103	-5
CC(C)(C)OC(=O)Cn1ccc(=O)[nH]c1=O	1	100	105	-8
c1ccc(-n2ncc3c(N4CCOCC4)ncnc32)cc1	38	103	103	-6
COc1ccc(C(=O)COC(=O)c2cc(Br)ccc2Cl)cc1	·	102	96	-3
CC1CCC(NC(=O)c2cc3c(s2)CSC3)CC1 (stereo unspecified)	-16	99	103	-3
